StopGo reporter = High Throughput Screening for Foot and Mouth Disease Virus Antivirals | human cells with a luciferase reporter of 2A StopGo recoding; control for the full effect not named in the record | Potency, µM (highest dose often 57.9 µM), inactives show at the highest dose signal change, negative = less light | 410,000 tested, 1.2% active | AID 1159524, 2015; active = well fitted falling curve with a large enough effect; inconclusive = small, poorly fitted or top-dose-only effect; inactive = no such curve, though single readings can be large or run the other way; tested in HEK293T cells; also: % is scaled to controls: 0 for no effect and ±100 for the full control effect; nearly all actives have a fitted effect of over 45% in size; luciferase light after 4 h
NS1 function inh = qHTS Assay for Inhibitors of Influenza NS1 Protein Function; 270,000 tested, 0.4% active; S. cerevisiae slowed by influenza A NS1, growth recovery by OD600; Potency, µM (top dose mostly 46.1 µM), for the others: top-dose activity, positive = more growth; active means well fitted rising curve with a large enough effect; inconclusive means small, poorly fitted or top-dose-only effect; inactive means no such curve, though single readings can be large or run the other way; also: nearly all actives have a fitted effect of over 50% in size
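In this qHTS, NS1 from influenza A is expressed in budding yeast, where it slows growth. Cells are switched from glucose to 2% galactose medium (pH 6.0, -URA), treated with compound, and growth recovery is read at OD600.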
LASV entry inh = qHTS for Inhibitors of binding or entry into cells for Lassa Virus; 300,000 tested, 1.2% active; Lassa virus pseudotype entry inhibition, cell reporter; control for the full effect not named in the record; Potency, µM (titrated, usually from 37.9 µM), without a hit: top-dose activity change, negative = inhibition, most hits filed as inhibitors; active means well fitted inhibition curve with a large enough effect; inconclusive means small, poorly fitted or top-dose-only effect, or effect the other way; inactive means flat fitted curve, though single readings scatter; tested in HEK293 cells; also: % is scaled to controls: 0 for no effect and ±100 for the full control effect; nearly all actives have a fitted effect of over 50% in size; luciferase read-out
Cruzain inh noDet = qHTS Assay for Promiscuous and Specific Inhibitors of Cruzain (without detergent); Cruzipain (Trypanosoma cruzi), P25779; purified cruzain, Z-FR-AMC fluorescence, no detergent; Potency, µM, inactives show max response, negative = inhibition, usual class: inhibitors; 200,000 tested, 2.3% active;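 also: plate controls were enzyme without inhibitor for no effect and buffer without enzyme for full effect; nearly all actives have a fitted effect of over 40% in size; top concentration of the series not given in the record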
Target sequence (P25779 123-467 limits assumed): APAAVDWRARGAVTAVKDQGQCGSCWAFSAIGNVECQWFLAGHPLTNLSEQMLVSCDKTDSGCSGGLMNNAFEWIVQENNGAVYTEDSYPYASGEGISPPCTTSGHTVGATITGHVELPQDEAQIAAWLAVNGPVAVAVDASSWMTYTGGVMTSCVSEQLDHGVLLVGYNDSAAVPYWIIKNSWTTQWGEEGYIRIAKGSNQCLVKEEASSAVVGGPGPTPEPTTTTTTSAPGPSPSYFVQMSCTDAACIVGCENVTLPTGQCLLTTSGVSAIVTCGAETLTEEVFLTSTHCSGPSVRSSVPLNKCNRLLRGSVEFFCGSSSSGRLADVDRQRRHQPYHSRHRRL
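Purified cruzain at 1.5 nM, pre-incubated 15 min with compound at room temperature in 100 mM sodium acetate pH 5.5, 5 mM DTT, 0.00005% Triton X-100. Reaction started with 2 uM Z-FR-AMC; AMC fluorescence increase over 60 s gives rate.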
Cruzain Triton = qHTS Assay for Promiscuous and Specific Inhibitors of Cruzain (with detergent) | Cruzipain (Trypanosoma cruzi), P25779 | purified cruzain, Z-FR-AMC fluorescence, 0.01% Triton | Potency, µM, for inactives: max response, negative = inhibition, hits mostly inhibitors | AID 1478, 2009 | 200,000 tested, 0.43% active;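 also: plate controls were neutral wells for no effect and buffer without enzyme for full effect; nearly all actives have a fitted effect of over 40% in size; top concentration of the series not given in the record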
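Z-FR-AMC hydrolysis (2 uM substrate) by cruzain (1.5 nM) monitored kinetically at ex 360/em 450 nm after 15 min room-temperature compound exposure; 0.01% Triton X-100, pH 5.5, 5 mM DTT.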
RE007 growth inh = qHTS Assay for Inhibitors of the HIV-1 protein Vpr; 360,000 tested, 0.21% active; S. pombe RE007 Vpr strain, BacTiter-Glo ATP luminescence, 24 h; control for the full effect not named in the record; Potency, µM (top dose mostly 92.2 µM), without a hit: top-dose activity change, negative = less growth; active = well fitted falling curve with a large enough effect; inconclusive = small, poorly fitted or top-dose-only effect; inactive = no such curve, though single readings can be large or run the other way;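 also: % is scaled to controls: 0 for no effect and ±100 for the full control effect; nearly all actives have a fitted effect of over 50% in size; the assay follows cell death caused by Vpr and the record does not say whether a fall means rescue or toxicity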
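Fission yeast strain RE007, carrying one chromosomally integrated HIV-1 vpr copy, was seeded at OD 0.01 in PMG+AL medium with 23 nL pinned compound. After 24 h at 30 °C and 99% humidity, viability was read by BacTiter-Glo luminescence.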
Marburg entry inh = qHTS for inhibitors of binding or entry into cells for Marburg Virus; Marburg virus pseudotyped entry inhibition, cell reporter; control for the full effect not named in the record; about a third of the inactives were read at about 46 µM; Potency, µM (doses to about 37.8 µM), inactives show top-dose activity change, negative = inhibition, hits mostly inhibitors; 300,000 tested, 1.8% active; active = well fitted inhibition curve with a large enough effect; inconclusive = small, poorly fitted or top-dose-only effect, or effect the other way; inactive = flat fitted curve, though single readings scatter; tested in HEK293 cells; about a fifth of its hits are not listed in these tables; also: % is scaled to controls: 0 for no effect and ±100 for the full control effect; luciferase read-out
SARS PLpro yeast = qHTS of Yeast-based Assay for SARS-CoV PLP | S. cerevisiae expressing SARS-CoV PLpro, growth rescue; control for the full effect not named in the record | 330,000 tested, 0.19% active | Potency, µM (titrated, usually from 32.9 µM), inactives show at the highest dose activity, positive = growth rescue | AID 485353, 2010; active means well fitted rising curve with a large enough effect; inconclusive means small, poorly fitted or top-dose-only effect; inactive means no such curve, though single readings can be large or run the other way; also: 0% is about no effect; nearly all actives have a fitted effect of over 55% in size; growth read by luminescence after 48 h
Starred values were filed as active, the others as inactive; ? = inconclusive; · = not tested or not shown; & = joins results of further samples; [ ] = another dose, or the depositor's remark. Unless noted, calls follow the shape of the dose curve; as a rule, active = well fitted curve in the direction sought with a large enough effect; inconclusive = small, poorly fitted or top-dose-only effect, or another doubt; inactive = no such curve, though single readings can be large; an effect the other way counts as inactive or inconclusive. Potency is read from the fitted curve at half-maximal effect.

SMILES	StopGo reporter	NS1 function inh	LASV entry inh	Cruzain inh noDet	Cruzain Triton	RE007 growth inh	Marburg entry inh	SARS PLpro yeast
Cc1c(C2Nc3ccccc3NC3=C2C(=O)CC(C)(C)C3)cnn1C (stereo not given)	16%	-17%	-3%	-22%	-9.7%	25%	2%&2%	-39%
S=C(NCc1ccc(Cl)cc1)NN1CCOCC1	-9%	2%	?	·	·	2%	2%[46.1 µM]	1%
COc1ccc(CC(=O)NNC(=O)COc2ccc(Cl)cc2C)cc1S(=O)(=O)N1CCOCC1	?	·	3%	·	·	1%	-13%	-2%
COCCN=C1NN=C(c2cc(C)n(CC3CCCO3)c2C)CS1 (stereo not given)	-30%	12%	·	·	·	-17%	5%[46.1 µM]	0%
COc1c2c(nc3occc13)C(CCC(C)(C)O)(OC)C(O)CC2 (stereo not given)	13%	-5%	15%	?	2.9%	-18%	33%	24%
CSc1ncccc1C(=O)Nc1ccc(S(=O)(=O)Nc2nccs2)cc1	101%[activator]	3%	-25%	-4%	-5.4%	2%	-6%	-31%
CCC(C)[C@H](NC(=O)Nc1ccc(S(N)(=O)=O)cc1)C(=O)OC (stereo not given in full)	-3%	-1%	-4%	·	·	-12%	6%[46.1 µM]	-1%
COc1cc(-n2c(C)nc3cc(C(=O)O)ccc32)cc(OC)c1OC	-2%	·	30%[46.1 µM]	·	·	4%	1%[46.1 µM]	2%
CN(C)c1cccc(C(=O)Nc2nnc(Cc3ccccc3)s2)c1	26%	0%	?	·	·	-6%	?	-2%
CC(NC(=O)COC(=O)COc1cccc2c1OC(C)(C)C2)c1ccccc1 (stereo not given)	-16%	-13%	-6%	·	·	-10%	7%	-2%
N#C/C(=N\O)c1nc2ccccc2s1	14%	-31%	·	·	·	-10%	·	-3%
COc1ccc(OC)c(NC(=O)CSC2=NN3CCCC(=O)N=C3S2)c1	-26%	4%	-35%[46.1 µM]	·	·	0%	11%[46.1 µM]	-1%
CCOC(=O)N1CCc2c(sc3c2c(=O)n(CCc2ccccc2)c(=O)n3Cc2cc(C)ccc2C)C1	-7%	·	20%[46.1 µM]	-8%	-1.3%	·	-15%[46.1 µM]	·
O=C(Nc1ccc2oc(-c3ccccc3F)nc2c1)c1cncc(Br)c1	33%[activator]	-4%	23%	?	1.8%	9%	19%	0%
O=C(c1cc(=O)[nH]c2ccccc12)N1CC=C(c2ccccc2)CC1	-7%	·	-29%	·	·	-11%	?	10%
CC(=O)c1ccc(NC(=O)C(C)OC(=O)/C=C/c2ccco2)cc1 (stereo not given)	-10%	·	?	·	·	-11%	11µM*	-2%
CC1CC(C)CN(CCOc2cccc3ccccc23)C1 (stereo not given)	-7%	-3%	-20%[46.1 µM]	·	·	-8%	?	0%
Cc1cc(C)n(-c2nc3ccccc3nc2N2CCCCCC2)n1	?	-8%[9.22 µM]	1%	-7%	-11%	16%	-10%	-10%
Cc1ccsc1C(=O)NCCc1nnc2ccccn12	3%	-5%	·	·	·	-4%	·	1%
CCCCCNC(=O)c1ccc2c(=O)n(CCOC)c(=O)[nH]c2c1	-10%	3%	-1%	5%	1.9%	11%	?	1%
C(=N\N1CCOCC1)/c1cn(-c2ccccc2)nc1-c1ccccc1	-1%	·	?	·	·	-5%	?	-10%
Cc1ccc(S(=O)(=O)Nc2nc3ccccc3s2)cc1	95%[activator]	-21%	?	-2%	-3.3%	0%	-3%	-1%
O=C(CN1CCC(NC(=O)c2ccccc2Cl)CC1)NCc1ccco1	-5%	1%	·	·	·	-5%	·	0%
CC(=O)c1cccc(NC(=O)NC2CC(=O)N(c3ccc4c(c3)OCCO4)C2)c1 (stereo not given)	-22%	·	6%[46.1 µM]	·	·	1%	21%	0%
COc1cc(C(=O)NN=Cc2ccc(N(CCCl)CCCl)cc2)cc(OC)c1OC	-19%	·	?	·	·	4%	?	·
Cc1ccc(NC(=O)N2CCC(NC(=O)c3cccc(C)c3)CC2)cc1	-1%	2%	-10%[46.1 µM]	·	·	8%	5%[46.1 µM]	-4%
Cc1nn2c3cc(N4CCOCC4)ccc3nc2c2ccccc12	7%	?	0%	·	·	-20%	-9%	·
Cc1cccc(NC(=O)c2sccc2-n2cccc2)c1C	-19%	-47%	16%	5%	-12%	-16%	?	-5%
c1nnc2c3c4c(sc3ncn12)CCCC4	·	-23%	·	-2%	0.2%	·	·	1%
CC1CCCN(CC(=O)Nc2ccc(S(=O)(=O)N3CCCCCC3)cc2)C1 (stereo not given)	13%	-4%	-30%[14.3 µM]	-1%	2.1%	7%	-5%	?
Cc1cccc(N2CCN(Cc3ccc4c(c3)OCO4)CC2)c1C	-22%	-4%	-3%[46.1 µM]	·	·	-18%	?	3%
COc1ccc(-c2onc3ccc(Cl)cc23)cc1	20%	1%	?	-5%	-5.1%	-4%	7%	-9%
COc1ccc(N2CCN(C(=O)CSc3nnc4nc(C)cc(C)n34)CC2)cc1	-5%	4%	-5%	·	·	2%	4%	·
O=C(NNC(=O)c1ccc(-n2cncn2)c([N+](=O)[O-])c1)c1ccccc1	-10%	·	8%	·	·	-10%	-13%	5%
O=C(c1cccnc1)N1c2ccccc2Sc2ccccc21	-13%	·	-11%	·	·	13%	?	1%
Cc1ccsc1/C=N/NC(=O)c1ccncc1	16%	·	13%	·	·	13%	20%[46.1 µM]	0%
COC(=O)NNC(=O)c1ccccc1OC	-15%	0%	·	·	·	-16%	·	-1%
CCCn1nnc2sc3c(c2c1=O)CCC(C)C3 (stereo not given)	28%	-15%	?	5%	-1.6%	?	4%	-2%
CCOC(=O)C1CCCN(C(=O)C2CCN(S(=O)(=O)N3CCC4(CC3)OCCO4)CC2)C1 (stereo not given)	·	2%	-6%	4%	7.2%	-12%	2%&8%	1%
CC(C)Cc1ccc(CN2CCCC(NC(=O)CCN3CCOCC3)C2)cc1 (stereo not given)	-10%	9%	-8%	·	·	2%	?	2%
O=NN1CCCCC1	0%	·	·	1%	2.4%	9%	·	-10%
COc1ccc(C(=O)Nc2ccc3nc(SCC(=O)N4CCCC4)sc3c2)cc1	-7%	·	-11%[46.1 µM]	-1%	-5.4%	·	1%[46.1 µM]	·
O=C(CNCc1ccco1)Nc1ccccc1-n1cccc1	·	2%	6%	-8%	0.3%	42%	15%	6%
Cc1cc(C)n(-c2nc3ccccc3c3nc(C)nn23)n1	6%	3%	·	-6%	2.3%	16%	·	4%
O=C(Cc1cccc2ccccc12)N1CCCc2ccccc21	-17%	-91%	2%	-8%	-5.6%	-7%	-2%&-2%	-12%
COC(=O)c1ccc(NC(=O)C(=O)N2CCCC2)cc1	30%[activator]	-5%	21%	?	3.2%	2%	15%	-2%
CN1CCc2nc(SCC(=O)Nc3ccc(F)cc3)c(C#N)cc2C1	·	?	·	?	-8.2%	·	·	-5%
CN(C)c1ccc2c(c1)OC(N)=C(C#N)C2c1cccc(F)c1 (stereo not given)	?	-116%	?	-16%	-9.8%	20%	2.1µM*	-13%
Cc1ccc(N2C(=O)N3[C@H](c4ccc(Cl)cc4)[C@@H]4C(=O)N(C5CCCCC5)C(=O)[C@@H]4[C@]3(Cc3ccccc3)C2=O)cc1	-5%	-16%	·	·	·	11%	·	-1%
COc1ccc(C(=O)SC2=NCCS2)cc1	·	3%	-17%	7%	-5.1%	-19%	-28%	-45%
COc1ccc(S(=O)(=O)N2CCN(C)CC2)c2ccccc12	-1%	-2%	·	-1%	-1.6%	-9%	·	-7%
Cc1ccccc1NC(=O)c1c(C)[nH]c(=S)c(C#N)c1-c1ccco1	0%	25%	0%	2%	-5.2%	21%	?	-9%
O=C(CN1CCCCC1)NNC(=O)c1cccc(Br)c1	-4%	-12%	-10%	·	·	-2%	-11%[46.1 µM]	0%
COc1ccc(N2CCN(Cc3nc(N)nc(Nc4ccc(C)c(Cl)c4)n3)CC2)cc1	?	-9%	-18%	5%	-15%	10%	?	1%
Cc1ccccc1C(=O)Nc1ccnn1C1CCN(Cc2ccccn2)CC1	-17%	2%	7%	·	·	5%	18%	0%
CC(=O)c1cccc(NC(=O)CN(C)Cc2ccc(OC(F)F)cc2)c1	?	0%	-10%	·	·	2%	8%[46.1 µM]	0%
Cc1ccc(C(=O)N/C(=C\c2sccc2C)C(=O)NCc2ccncc2)cc1	12%	-1%	7%	7%	-2.5%	-18%	?	?
Cc1ccc(OCC(=O)NCCNC(=O)c2cccnc2)cc1C	19%	2%	3%	·	·	5%	12%[46.1 µM]	0%
CCOC(=O)C(C(=O)OCC)C(Nc1ccc(Br)cc1)c1ccccc1 (stereo not given)	13µM*	-38%	17%	2%	-2.9%	-17%	-13%	-5%
Cc1cc(C2N=C(N)Nc3nc4ccccc4n32)c(C)n1-c1ccccc1Cl (stereo not given)	·	?	?	0%	0.9%	0%	?	0%
CCOC(=O)c1sc(NC(=O)c2ccc(S(=O)(=O)N3CCCCC3)cc2)nc1-c1ccccc1	?	4%	12%	?	-3.2%	-4%	?	5%
CCC(=O)OCCNc1nc(-c2ccccc2)nc2ccccc12	?	·	0%[46.1 µM]	·	·	6%	?	-15%
Cc1ccccc1-c1nc(CS(=O)CC(=O)N2CCN(c3cc(Cl)ccc3C)CC2)c(C)o1 (stereo not given)	?	·	9%[46.1 µM]	?	-5.7%	·	-30%[46.1 µM]	·

A second format for 2 compounds above.
| compound | StopGo reporter | NS1 function inh | LASV entry inh | Cruzain inh noDet | Cruzain Triton | RE007 growth inh | Marburg entry inh | SARS PLpro yeast |
| --- | --- | --- | --- | --- | --- | --- | --- | --- |
| CC(C)Cc1ccc(CN2CCCC(NC(=O)CCN3CCOCC3)C2)cc1 (stereo not given) | -10% | 9% | -8% | · | · | 2% | ? | 2% |
| O=NN1CCCCC1 | 0% | · | · | 1% | 2.4% | 9% | · | -10% |

Screens from PubChem.

Random draw from the library (roughly 4.8% active in at least one column).
